Screens (PubChem BioAssay)
StopGo reporter: lowers the luciferase signal of an FMDV 2A StopGo reporter; human cells with a luciferase reporter of 2A StopGo recoding; control for the full effect not named in the record; Potency, µM (series often up to 57.9 µM), without a hit: top-dose signal change, negative = less light; hit rate 1.2% among 410,000; AID 1159524; active = well fitted falling curve with a large enough effect; inconclusive = small, poorly fitted or top-dose-only effect; inactive = no such curve, though single readings can be large or run the other way; tested in HEK293T cells; note: nearly all actives have a fitted effect of over 45% in size; luciferase light after 4 h
RE007 growth inh: less growth of the S. pombe RE007 Vpr strain; S. pombe RE007 Vpr strain, BacTiter-Glo ATP luminescence, 24 h; control for the full effect not named in the record; Potency, µM (doses to about 92.2 µM), without a hit: at the top dose activity change, negative = less growth; hit rate 0.21% among 360,000; active = well fitted falling curve with a large enough effect; inconclusive = small, poorly fitted or top-dose-only effect; inactive = no such curve, though single readings can be large or run the other way;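 note: nearly all actives have a fitted effect of over 50% in size; the assay follows cell death caused by Vpr and the record does not say whether a fall means rescue or toxicity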
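Fission yeast RE007 carrying one integrated HIV-1 vpr copy, seeded at OD 0.01 in PMG+AL medium with 23 nL pinned compound. Grown 24 h at 30 degrees; viability read by BacTiter-Glo luminescence after 5 min.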
Starred values were filed as active, the others as inactive; u = inconclusive; [ ] = dose if it differs, or a comment. % is set by controls: 0 for no effect and ±100 for the full control effect; potency is the fitted concentration of half-maximal effect. An excerpt, so the mix of outcomes need not match the whole.

#1 COCCN1C(=O)N[C@@H](c2ccccc2)[C@@H](C(=O)OC)[C@H]1C
#2 CCOC(=O)N1CCC2CC1c1cc(Cl)ccc12 (configuration not stated)
#3 COCCN1C[C@@H](CO)O[C@@H](n2cnc3c(NC4CCC4)ncnc32)C1
#4 CN(C)c1ncnc2c1ncn2[C@H]1CN(Cc2ccccc2)C[C@@H](CO)O1
#5 O=C(Nc1ccc(Cl)c(C(F)(F)F)c1)[C@@H]1CC=C[C@@H]2CCN(Cc3ccc(Cl)c(Cl)c3)C(=O)[C@@H]21
#6 O=C(/C=C/[C@H]1O[C@@H](n2ccc(=O)[nH]c2=O)[C@H](O)[C@@H]1O)NCCCc1ccccc1
#7 CCCCCCN1CCN(C2CN(Cc3cn(Cc4ccc(Cl)cc4)nn3)S(=O)(=O)C2)CC1 (configuration not stated)
#8 COc1ccc(C(=O)N/C(=C\c2ccc(-c3cccc([N+](=O)[O-])c3)o2)C(=O)NCCCN2CCOCC2)cc1

| assay / entry | 1 | 2 | 3 | 4 | 5 | 6 | 7 | 8 |
| --- | --- | --- | --- | --- | --- | --- | --- | --- |
| StopGo reporter | -4.5% | -20.7% | 5.6% | -19.2% | -23.6% | -4.8% | -22.3% | u |
| RE007 growth inh | 4.6% | -0.8% | -7.1%[18.4 µM] | -4.1% | -5.6% | 4.2% | -27.5% | 0.8% |

Some values from the results shown.
`CN(C)c1ncnc2c1ncn2[C@H]1CN(Cc2ccccc2)C[C@@H](CO)O1` in StopGo reporter has -19.2%
`CCOC(=O)N1CCC2CC1c1cc(Cl)ccc12` (configuration not stated) in StopGo reporter has -20.7%

(list continues)
#9 CN(C)c1ccc(-c2csc(C(C)(O)c3cccc(F)c3)n2)cc1 (configuration not stated)
#10 O=C(NC1CC1)c1cccc(NC(=O)C2CCC2)c1
#11 COc1cc(C(=O)NCC(c2ccco2)N2CCCC2)ccc1OCc1ccc(Cl)cc1Cl (configuration not stated)
#12 CCOc1cc(C(=O)N(Cc2ccccc2)c2ccc(C)cc2)ccc1OCC(=O)N1CCOCC1
#13 CC1(C(=O)NNC(=O)c2cccc([N+](=O)[O-])c2)CC1Br (configuration not stated)
#14 Fc1cccc(-c2cncc(N3CCN(CCN4CCCC4)CC3)n2)c1
#15 CCCN(CC(=O)Nc1ccc(F)c(F)c1F)C(=O)CN1C(=O)NC2(CCCCC2)C1=O
#16 CC(C)(C)OC(=O)N1CCC(C(=O)Nc2cccc(C(=O)NCCCCc3ccccc3)c2)CC1

| assay / entry | 9 | 10 | 11 | 12 | 13 | 14 | 15 | 16 |
| --- | --- | --- | --- | --- | --- | --- | --- | --- |
| StopGo reporter | -6.6% | -1.1% | -22.8% | -1.1% | -3.1% | -22.8% | 12.9% | 17.8µM* |
| RE007 growth inh | 12.6% | -16.4% | 8.3% | 8.9% | 10.5% | -13.2% | -12.2% | -15.5% |

#17 S=C(NCCc1ccccc1)N1Cc2ccc(Br)cc2-n2nncc2C1
#18 CC[C@@H]1Cc2[nH][nH]c(=O)c2[C@@H](c2ccc(Cl)cc2)O1
#19 CCCNC(=O)N1[C@H]2CC[C@@H]1C(C(=O)OC)=C(c1ccccc1)C2
#20 CCc1nc2ccc(C(=O)NCCc3ccccn3)cn2c1N(C)CCC(C)C
#21 COc1cccc(-c2cnc(C(O)c3cc(C)cc(C)c3)[nH]2)c1 (configuration not stated)
#22 Clc1ccccc1Nc1nc(NCc2cccs2)nc2ccsc12
#23 CSCCC(c1nnnn1C(C)(C)C)N1CCN(C/C=C/c2ccccc2)CC1 (configuration not stated)
#24 COc1ccc(-c2ccc3c(c2)CN(C(=S)NCCc2ccccc2)Cc2cnnn2-3)cc1

| assay / entry | 17 | 18 | 19 | 20 | 21 | 22 | 23 | 24 |
| --- | --- | --- | --- | --- | --- | --- | --- | --- |
| StopGo reporter | 17.9% | -23.0% | -12.2% | -6.8% | 27.9% | u | -17.0% | 44.3%[activator] |
| RE007 growth inh | 5.8% | -14.6% | 7.9% | u | 3.0% | -17.8% | -19.0% | -2.3% |

#25 CCOC(=O)CC1(C)N(S(=O)(=O)c2ccc(C)cc2)c2ccccc2N1S(=O)(=O)c1ccc(C)cc1
#26 CC1=C(C(=O)N2CCOCC2)CC(CC(=O)NC(c2ccccc2)c2ccccc2)C(=O)N1CCC1=CCCCC1 (configuration not stated)
#27 CC(C)(C)[C@H]1C=C(C(=O)Nc2ccccc2)O[C@@H](OCCCCO)C1
#28 O=C(c1cc(Cl)cc(Cl)c1)N1CCC2CC1c1cc(N3CCCCC3)ccc12 (configuration not stated)
#29 COc1ccccc1-c1noc2c1C(=O)N(Cc1cn(-c3ccccc3)nn1)CC2
#30 COc1ccc(-n2nnnc2C(CCSC)N2CCC(n3c(=O)[nH]c4ccccc43)CC2)cc1 (configuration not stated)
#31 Cc1[nH]c(=O)[nH]c(=O)c1C=CC(=O)NC(CO)CS(=O)Cc1ccccc1 (configuration not stated)
#32 CN1OC[C@@H]2CN(Cc3ccc(Cl)cc3)[C@H](c3cccc(Br)c3)C[C@@H]21

| assay / entry | 25 | 26 | 27 | 28 | 29 | 30 | 31 | 32 |
| --- | --- | --- | --- | --- | --- | --- | --- | --- |
| StopGo reporter | -7.3% | -19.2% | 74.8%[activator] | -24.4% | 0.0% | -18.3% | 0.0% | u |
| RE007 growth inh | 0.5% | 3.9% | 5.5% | 8.9% | 29.2% | 7.4% | -5.8% | u |

Structural class, the compounds so far with two or more sulfur atoms (2)
#22 Clc1ccccc1Nc1nc(NCc2cccs2)nc2ccsc12
#25 CCOC(=O)CC1(C)N(S(=O)(=O)c2ccc(C)cc2)c2ccccc2N1S(=O)(=O)c1ccc(C)cc1

| assay / entry | 22 | 25 |
| --- | --- | --- |
| StopGo reporter | u | -7.3% |
| RE007 growth inh | -17.8% | 0.5% |

(further entries)
#33 CN(C)c1ccc(CC(=O)N2CCCCC2c2cc(C(=O)Nc3cccc(C#N)c3)no2)cc1 (configuration not stated)
#34 NC(=O)c1ncn([C@@H]2O[C@H](CNCc3cnc(N4CCOCC4)s3)[C@@H](O)[C@H]2O)n1
#35 COc1ccccc1C(=O)Nc1nnc([C@H]2C[C@H](O)[C@@H](CO)O2)s1
#36 CCN(CC)CCN(C(=O)/C=C/c1cccs1)c1nc2ccc(OC)cc2s1
#37 Cc1ccn(CCC(=O)N2CCCC(N3CCN(c4ccccc4C)CC3)C2)n1 (configuration not stated)
#38 COc1ccc(C(C(=O)c2ccccc2)c2ccccc2)cc1 (configuration not stated)
#39 COc1ccc([C@H]2/C=C\CN(C(=O)c3ccccc3)[C@@H](C)C(=O)N2Cc2ccc(F)cc2)cc1
#40 O=c1c2ccc(F)cc2sn1-c1ccccc1

| assay / entry | 33 | 34 | 35 | 36 | 37 | 38 | 39 | 40 |
| --- | --- | --- | --- | --- | --- | --- | --- | --- |
| StopGo reporter | u | -6.2% | 3.8% | -4.6% | -20.3% | -12.0% | -24.4% | -2.0% |
| RE007 growth inh | 2.9%[18.4 µM] | 7.8% | 11.3% | -7.6% | 8.0% | 0.0% | -5.5% | -69.9% |

#41 Nc1ncnc2c1ncn2[C@@H]1O[C@H](C(=O)Nc2ccc(C(=O)N3CCCCC3)cc2)[C@@H](O)[C@H]1O
#42 COc1ccccc1Cn1c(C)c(C(=O)NCc2ccc3c(c2)OCCO3)sc1=O
#43 COc1ccc(OC)c(C=Cc2ccc([N+](=O)[O-])cc2)c1
#44 Cc1cc(Cl)ccc1-c1nc(NCCN(C)C)nc2ccsc12
#45 O=C1COc2ccccc2C(c2nc3ccccc3[nH]2)N1Cc1ccccc1 (configuration not stated)
#46 CC[C@H]1CC2CN3CCc4c([nH]c5ccccc45)C(C(=O)OC)(C2)C13 (some centres not stated)
#47 Cc1nc(SCC(=O)NNC(=O)c2ccc(F)cc2)c2ccccc2n1
#48 C[C@H]1CN(Cc2ccccc2)C(=O)[C@@H]1CC(=O)Nc1ccccc1

| assay / entry | 41 | 42 | 43 | 44 | 45 | 46 | 47 | 48 |
| --- | --- | --- | --- | --- | --- | --- | --- | --- |
| StopGo reporter | -10.7% | -22.0% | -0.2% | -22.5% | -18.4% | -23.6% | -18.5% | -7.3% |
| RE007 growth inh | 1.2% | -1.8%[18.4 µM] | -14.2% | 1.3% | -13.9% | -15.7% | 8.5% | 11.2% |

#49 CC(C)N(Cc1ccccc1)S(=O)(=O)c1ccc(-n2cccn2)cc1
#50 O=C(OCc1ccccc1)N1CCC2CC1c1cc(-c3ccc4c(c3)OCO4)ccc12 (configuration not stated)
#51 COCCNC(=O)C1CCCN(Cc2ccccc2-c2ccccc2)CC1 (configuration not stated)
#52 O=C(Nc1nnc([C@@H]2C[C@H](O)[C@@H](CO)O2)s1)NC1CCCCC1
#53 COc1ccc(N2CCN(CCCn3ccc(NC(=O)OCc4ccccc4)nc3=O)CC2)cc1
#54 CN1C[C@H]2CON(C)[C@H]2C[C@H]1c1cccc(N2CCOCC2)c1
#55 COC(=O)[C@]12CCCCC=C1N(CCC1=CCCCC1)C(=O)[C@H](CC(=O)NCc1cccc(C(F)(F)F)c1)C2
#56 CC(C)(C)C(=O)c1c(N)[nH]c(C(=O)c2ccccc2)c1-c1ccccc1Br

| assay / entry | 49 | 50 | 51 | 52 | 53 | 54 | 55 | 56 |
| --- | --- | --- | --- | --- | --- | --- | --- | --- |
| StopGo reporter | -26.0% | -4.9% | 0.0% | -17.4% | 0.0% | -19.2% | -2.6% | u |
| RE007 growth inh | 11.2% | -5.1% | -3.6% | -6.5%[18.4 µM] | -6.5% | 2.8% | 3.8% | 4.0% |

#57 CCCS(=O)(=O)NC(=O)C1(C)CCCN(C(=O)C2(c3ccc(Cl)cc3)CCCC2)C1 (configuration not stated)
#58 COCOc1ccc(/C=C2/Oc3cc(OCOC)cc(OCOC)c3C2=O)c(OCOC)c1
#59 O=S(CC(O)(c1ccccc1)c1ccccc1)CC(O)(c1ccccc1)c1ccccc1
#60 COC(=O)C[C@H]1C[C@H]2c3cc(NC(=O)Nc4ccc(F)cc4)ccc3O[C@H]2[C@@H](CO)O1
#61 Cc1ccc(F)c(S(=O)(=O)NC(=O)C2(C)CCN2C(=O)c2ccccc2)c1 (configuration not stated)
#62 COc1ccc(Cn2cc(CN3CC(N4CCN(C5CCN(C)CC5)CC4)CS3(=O)=O)nn2)cc1 (configuration not stated)
#63 CCn1c(SCC(=O)Nc2oc(C)c3c(C)n[nH]c(=O)c23)nnc1-c1ccco1
#64 CCCCCNC(=O)c1nc(-c2c(F)cccc2F)oc1-c1ccccc1

| assay / entry | 57 | 58 | 59 | 60 | 61 | 62 | 63 | 64 |
| --- | --- | --- | --- | --- | --- | --- | --- | --- |
| StopGo reporter | -16.1% | -19.4% | -28.3% | -14.9% | -7.0% | -16.2% | 10.3% | -11.7% |
| RE007 growth inh | 4.4% | 2.3% | 25.1% | 3.3% | -9.9% | 2.4% | -9.0% | 5.3% |

Record cards, from the list above:
Listed for CCn1c(SCC(=O)Nc2oc(C)c3c(C)n[nH]c(=O)c23)nnc1-c1ccco1 = StopGo reporter: 10.3%; RE007 growth inh: -9.0%
Listed for COCOc1ccc(/C=C2/Oc3cc(OCOC)cc(OCOC)c3C2=O)c(OCOC)c1 = StopGo reporter: -19.4%; RE007 growth inh: 2.3%

(listing goes on)
#65 COC(=O)CC1C(=O)NCCN1C(=O)c1oc2c(C)c(C)ccc2c1C (configuration not stated)
#66 C=C(C1=CCN(S(=O)(=O)C(C)(C)C)[C@H]1CCO)c1ccccc1
#67 COc1ccc(Cc2c(-c3cccc(Br)c3)nc3cc(C)c(Br)c(C)n23)c(C)c1
#68 C[C@@H]1Cc2[nH][nH]c(=O)c2[C@H](c2ccc(Cl)cc2)O1
#69 CCC(=O)N1CCC1(C)C(=O)NS(=O)(=O)c1cccc(C#N)c1 (configuration not stated)
#70 COCCNc1nc(NCc2cccc(OC)c2OC)c2sccc2n1
#71 COc1cc(C(=O)N2CCOC23CCN(Cc2ccccc2)CC3)cc(OC)c1OC
#72 CN(C(=O)c1cccc(NC(=O)Cc2ccc(NC(=O)C3CCCN(C(=O)C4CC4)C3)cc2)c1)C1CC1 (configuration not stated)

| assay / entry | 65 | 66 | 67 | 68 | 69 | 70 | 71 | 72 |
| --- | --- | --- | --- | --- | --- | --- | --- | --- |
| StopGo reporter | 2.9% | -15.9% | -20.3% | 5.3% | -8.8% | u | -15.7% | 2.0% |
| RE007 growth inh | 18.7% | 15.8% | 0.0% | -4.2% | 18.5% | -1.8% | 1.5% | 2.8% |

#73 O=C(Nc1cccnc1)C1Cc2c(-c3ccc4c(c3)OCO4)ccnc2O1 (configuration not stated)
#74 CN1C[C@@H]2[C@@H]3C(=O)N(C)C(=O)[C@@H]3[C@](Cc3ccccc3)(C1=O)N2C(=O)c1ccc(Cl)cc1
#75 Cc1ccc([C@@H]2C[C@H]3[C@@H](CN2S(=O)(=O)c2ccc(C)cc2)C(=O)C[C@@H](c2ccc(Cl)cc2)N3S(=O)(=O)c2ccccc2C)cc1
#76 Nc1c(Cl)cc(-c2csc(N3CCCC3c3nc4cc(Cl)c(N5CCCCC5)cc4n3CCCO)n2)cc1Cl (configuration not stated)
#77 CCn1cc(C(=O)N2CCCC(C(=O)c3cccc(C(F)(F)F)c3)C2)cn1 (configuration not stated)

| assay / entry | 73 | 74 | 75 | 76 | 77 |
| --- | --- | --- | --- | --- | --- |
| StopGo reporter | u | -4.5% | -18.0% | -9.4% | -15.8% |
| RE007 growth inh | 57.8%[18.4 µM] | 8.2% | 10.2% | 8.1% | 5.0% |
